Bioassay records (PubChem BioAssay)
gsp agonist – gsp mutant agonism; Potency, µM (doses to about 76.9 µM), inactives show at the highest dose activation (cAMP increase), most hits filed as activators; 0.13% of 340,000 active; gsp mutant cells, cAMP HTRF, 30 min; control for the full effect not named in the record; AID 624287; active = well fitted activation curve with a large enough effect; inconclusive = small, poorly fitted or top-dose-only effect, or another doubt; inactive = no such curve, though single readings can be large or run the other way; cell line not stated here;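 further: phosphodiesterase inhibitor Ro 20-1724 added with compounds to block cAMP breakdown; potency means the concentration at half of the fitted maximal effect; nearly all actives have a fitted effect of over 60% in size; about a fifth of the inactives were tested at one dose only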
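Cells in DMEM/10% FBS with G418 were pretreated with compounds in DMSO plus […] (300 uM stock) for 30 min at 37C. cAMP was measured by HTRF (cAMP-d2 plus anti-cAMP antibody-K) after 30 min at room temperature.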
gsp antag – gsp mutant antagonism | AID 624288 | gsp-mutant cells, cAMP HTRF, 30 min; control for the full effect not named in the record | 0.4% of 340,000 active | Potency, µM (series often up to 76.9 µM), without a hit: at the highest dose activity change, negative = inhibition, most hits filed as inhibitors; active = falling curve of any shape with a large fitted effect; inconclusive = falling curve, mostly with a smaller effect; inactive = flat or rising curve; cell line not stated here;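 further: intracellular cAMP measured with PDE inhibitor Ro 20-1724 present during compound exposure; potency means the concentration at half of the fitted maximal effect; on the % scale 0 is the no-effect control and ±100 the full control effect; nearly all actives have a fitted effect of over 65% in size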
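Measurement of cellular cAMP by homogeneous time-resolved fluorescence following a 30 min compound exposure at 37C. The PDE inhibitor […] was present throughout; the assay buffer was DPBS with 0.05% BSA and 0.005% Tween 20.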
CtBP-E1A blk – CtBP/E1A binding inhibition; AlphaScreen GST-E1A/His-CtBP binding, 1536-well; hits give low values; control for the full effect not named in the record; activity change, % (concentration not given with the values); 0.49% of 340,000 active; AID 651724; in the data active means activity change below about -65%; inconclusive means about -30% to -65%; inactive means above about -30%; further: on the % scale 0 is the no-effect control and ±100 the full control effect
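AlphaScreen with 125 nM GST-E1A and 125 nM His-CtBP (5X stocks) in Tris pH 8.0, 300 mM NaCl, BSA, Tween 20, TCEP. Compounds preincubated 2 h at 37 deg C, then glutathione donor/nickel acceptor beads added for 1 h at 37 deg C in dark.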
ClpP mod – qHTS Assay for Activators of ClpP. ATP-dependent Clp protease proteolytic subunit (Bacillus subtilis (strain 168)), P80244. purified B. subtilis ClpP, FRET peptide cleavage, 20 min. Potency, µM (doses to about 57.5 µM), without a hit: top-dose activity change, negative = active. 1.9% of 340,000 active; active = well fitted falling curve with a large enough effect; inconclusive = small, poorly fitted or top-dose-only effect; inactive = no such curve, though single readings can be large or run the other way; further: potency means the concentration at half of the fitted maximal effect; the source files actives as falling curves though it sought activators and does not explain the sign; nearly all actives have a fitted effect of over 65% in size; many hits overshoot -100%
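ClpP 10 microg/mL final, pH 8 Tris/KCl buffer with BSA, glycerol, Tween-20; compound pinned in; FRET-FV substrate; RT 20 min; Ex320/Em430; ΔFRET vs ADEP 5.8 microM, DMSO, no enzyme.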
Menin MLL FP FL – displaces fluorescein MLL peptide from human menin; Fluorescence polarization, fluorescein-MLL peptide displacement from menin; FP activity change, % at 61.4 µM; 290,000 tested, under 10 active; AID 1766; inconclusive = falling polarisation curve, or a change in total fluorescence; inactive = total fluorescence flat and polarisation flat or rising; no compound was filed as active; the % refers to the polarisation; negative = inhibition;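 further: % of control where 0% means no effect; inhibitors lower the polarisation; unlabelled MLL peptide was the positive control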
Sfp inh – Sfp phosphopantetheinyl transferase inhibition; 3.5% of 310,000 active; Potency, µM, for the others: max response, negative = inhibition, usual class: inhibitors; Biochemical Sfp PPTase activity, qHTS; AID 1490; active means well fitted inhibition curve with a large enough effect; inconclusive means small, poorly fitted or top-dose-only effect, or another doubt; inactive means no such curve, though single readings can be large or run the other way;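 further: the enzyme is Sfp with the accession as filed and its product quenches rhodamine fluorescence; potency means the concentration at half of the fitted maximal effect; 0% = enzyme reaction without inhibitor and -100% = no enzyme wells; top concentration of the series not given in the record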
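After 15 min at room temperature with compound, 15 nM Sfp received 5 uM rhodamine-CoA plus 12.5 uM BHQ-2-ybbR (50 mM Hepes pH 7.6, 10 mM MgCl2). Rate came from the fluorescence difference over 30 min, ex 525/em 598 nm.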
TRPV1 potentiator – enhances activation of the human vanilloid receptor TRPV1; potentiation, % at 8.33 µM; 0.02% of 320,000 active; TRPV1-expressing cells, Fluo-8 calcium influx, capsaicin EC20 potentiation; host cell line not named in the record; control for the full effect not named in the record; AID 540277; Q8NER1; active means potentiation above 80%; inconclusive means 30% to 80%; inactive means below 30%; further: 0% is about no effect
Target sequence (Q8NER1 whole entry, looked up): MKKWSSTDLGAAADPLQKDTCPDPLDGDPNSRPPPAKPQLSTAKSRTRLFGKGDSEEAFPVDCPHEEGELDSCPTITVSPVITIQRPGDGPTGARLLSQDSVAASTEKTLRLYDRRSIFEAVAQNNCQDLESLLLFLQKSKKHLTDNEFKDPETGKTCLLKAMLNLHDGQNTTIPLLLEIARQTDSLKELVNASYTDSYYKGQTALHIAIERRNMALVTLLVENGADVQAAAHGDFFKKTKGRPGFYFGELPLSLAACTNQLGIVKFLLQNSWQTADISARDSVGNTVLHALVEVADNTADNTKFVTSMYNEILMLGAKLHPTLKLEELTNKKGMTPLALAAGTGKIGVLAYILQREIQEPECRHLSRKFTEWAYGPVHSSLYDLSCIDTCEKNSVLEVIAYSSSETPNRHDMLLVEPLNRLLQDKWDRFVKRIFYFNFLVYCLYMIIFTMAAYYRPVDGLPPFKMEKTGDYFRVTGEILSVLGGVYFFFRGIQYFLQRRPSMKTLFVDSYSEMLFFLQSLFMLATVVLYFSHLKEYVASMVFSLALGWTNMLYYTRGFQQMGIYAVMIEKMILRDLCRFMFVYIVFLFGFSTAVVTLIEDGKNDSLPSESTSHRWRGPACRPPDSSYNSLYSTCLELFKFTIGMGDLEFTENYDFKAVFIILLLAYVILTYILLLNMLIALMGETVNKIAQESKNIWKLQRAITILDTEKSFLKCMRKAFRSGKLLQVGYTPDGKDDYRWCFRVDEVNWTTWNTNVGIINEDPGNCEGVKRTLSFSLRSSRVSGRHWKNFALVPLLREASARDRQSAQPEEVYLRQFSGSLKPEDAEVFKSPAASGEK
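Fluo-8 calcium influx in TRPV1-expressing cells, kinetic read (ex 480/em 520 nm). Compound added and read 3 min for agonist activity, followed by capsaicin at EC20 final and 2 min further read for enhancement.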
Active calls of the source: *; ? = inconclusive; nt = no result given; [ ] = remark or other dose.

SMILES	gsp agonist	gsp antag	CtBP-E1A blk	ClpP mod	Menin MLL FP FL	Sfp inh	TRPV1 potentiator
Cc1occc1C(=O)NNC(=S)NC(=O)COc1ccc(Cl)cc1Cl	-20%[15.4 µM]	15%	-4	0.6%	nt	9%	-8
CC(C)c1nc(SCC(=O)NC2CCCCC2)c2ccccc2n1	32%[15.4 µM]	6%	3	nt	1.7	15%	-18
CCNC(=O)CSc1nc2cc(OC)c(OC)cc2c(=O)n1CCC1=CCCCC1	nt	nt	nt	nt	5.9	-21%	-8
COc1ccc(NC(=O)COC(=O)Cn2cnc3ccccc3c2=O)c(OC)c1	?	3%	nt	0.2%	nt	nt	2
COc1ccc(NC(=O)CN2CCN(C(=O)C3CCCO3)CC2)c(OC)c1 (stereo not given)	3%[15.4 µM]	9%	9	1.3%	-0.1	12%	-4
Cc1cccc(-c2nnn(C/C(N)=N/O)n2)c1	-27%	-4%	nt	1.7%	0.1	14%	-19
COC(=O)c1ccccc1NC(=O)CSc1nnc(C(C)NC(=O)c2ccc(Cl)cc2Cl)n1C (stereo not given)	-29%	-2%	5	0.5%	-1.5	13%	9
CC[C@]12c3[nH]c4ccc(Cl)cc4c3CCN1C(=O)[C@@H](CC(=O)NCc1cccc(C(F)(F)F)c1)C[C@@H]2C(=O)N1CCN(C(=O)C2CC2)CC1	nt	-12%	-1	2.5%	nt	nt	nt
CCC(=O)N1CCc2cc(S(=O)(=O)N3CCCCCC3)ccc21	-9%	16%	-13	-0.3%	nt	14%	28
COc1cc(/C=C2\SC(=S)N(NS(=O)(=O)c3ccccc3)C2=O)ccc1O	19%	-22%	nt	1.2%	?	18%	-2
O=C(Nc1ccc(Br)cc1)C1CCCN1S(=O)(=O)c1cccs1 (stereo not given)	0%	1%	9	-0.4%	-1.2	10%	0
COC(=O)c1ccccc1N(C)S(=O)(=O)c1cc2c3c(c1)CCC(=O)N3CCC2	0%	-13%	6	-2.7%	nt	nt	20

An excerpt from above, limited to ClpP mod, gsp antag and Menin MLL FP FL.
| Structure | ClpP mod | gsp antag | Menin MLL FP FL |
| --- | --- | --- | --- |
| CCC(=O)N1CCc2cc(S(=O)(=O)N3CCCCCC3)ccc21 | -0.3% | 16% | nt |
| Cc1cccc(-c2nnn(C/C(N)=N/O)n2)c1 | 1.7% | -4% | 0.1 |
| COC(=O)c1ccccc1N(C)S(=O)(=O)c1cc2c3c(c1)CCC(=O)N3CCC2 | -2.7% | -13% | nt |
| CCNC(=O)CSc1nc2cc(OC)c(OC)cc2c(=O)n1CCC1=CCCCC1 | nt | nt | 5.9 |

Later entries:
SMILES	gsp agonist	gsp antag	CtBP-E1A blk	ClpP mod	Menin MLL FP FL	Sfp inh	TRPV1 potentiator
N#C/C(=C/c1ccc(Cl)cc1)NC(=O)c1ccccc1	-6%	4%	0	-1.3%	3.3	-13%	6
CCCn1nnnc1NCc1cc(Br)ccc1OC	-2%	11%	3	-0.3%	-0.4	8%	27
C[C@H](NC(=O)[C@@H]1CSC2c3ccccc3C(=O)N21)C(=O)NC1CCCCC1 (stereo not given in full)	?	13%	-3	-0.3%	nt	-2%	8
COc1ccc(-c2cc(-c3ccc(C)cc3)nc(SCc3nnc(-c4ccccc4)o3)c2C#N)cc1OC	26%[15.4 µM]	3%	-7	?	1.0	-9%	3
O=C(NN1C(=O)C2C3C=CC(C3)C2C1=O)c1ccncc1 (stereo not given)	-27%	-11%	-3	0.8%	1.2	8%	7
COC(=O)c1ccc(/C=N/N2CCN(Cc3ccccc3Cl)CC2)cc1	15%	6%	2	nt	2.5	-4%	1
CC1(C)C=Cc2c(ccc3c2OC[C@H](c2ccc(O)cc2O)C3)O1	nt	-12%	5	-0.8%	nt	nt	-15
CCOC(=O)Cn1c(=O)oc2cc(S(=O)(=O)Nc3ccc(N(CC)CC)cc3C)ccc21	-19%	?	?	-1.6%	7.7	9%	-19
C=CCN1C(=O)/C(=C/c2ccc(O)cc2)S/C1=N/c1nccs1	-1%[15.4 µM]	10%	-23	-0.5%	?	-10%	3
CCOC(=O)C(=O)/C(C#N)=C/Nc1ccccc1	-8%	-8%	-2	0.7%	1.6	19%	-1
O=C(NCc1cccnc1)c1ccc(Cl)c(Cl)c1	-6%	2%	5	?	4.6	10%	-24
Cc1cc(Cl)c(S(=O)(=O)N/N=C/c2ccc3c(c2)OCO3)c(Cl)c1	16%	-6%	-11	-2.5%	-0.4	20%	9
CSc1ccccc1OCc1cc(C(=O)N(C)Cc2cc(C)[nH]n2)no1	10%	-5%	-16	-1.7%	nt	?	-17
CSc1ccc(Cl)c(C(=O)OCC(=O)Nc2ccccc2OC(F)F)c1	0%	-8%	33	28µM*	-0.3	5%	9
O=C(Nc1ccc(NC(=O)c2ccco2)cc1)c1ccco1	9%	-8%	0	-0.1%	nt	15%	?
CCN1CCN(CCNC(=O)c2ccc(/C=C3\Sc4ccccc4N(Cc4ccccc4F)C3=O)cc2)CC1	-17%	-5%	-10	-11%	-0.8	79µM*	9
O=C1NN(c2ccccc2)C(=O)C2C3C=CC(C4CC34)C12 (stereo not given)	-36%[inhibitor]	16%	-10	3.0%	1.9	11%	25
COc1ccc(NC(=O)CC2C(=O)N(c3cccc(OC)c3)C(=O)N2C(C)C)cc1 (stereo not given)	?	4%	3	-3.6%	2.1	13%	19
O=S(=O)(/N=C(/NC(=S)Nc1ccccc1)c1ccccc1)c1ccc(Cl)cc1	?	-10%	-5	nt	1.6	45µM*	29
O=C(CCn1nc(-c2ccc(Cl)cc2)ccc1=O)N1CCN(c2ccccc2)CC1	-5%	-3%	nt	-1.9%	-5.5	-4%	6
Cc1ccc(Nc2nnc(SC(C)C(=O)NC3CC3)s2)cc1 (stereo not given)	-40%[inhibitor]	-1%	-7	0.3%	nt	nt	0
C/C=C/c1ccc(O)c(OC)c1	21%	2%	4	-4.0%	-2.7	-11%	8
O=C(CSc1nnnn1-c1cccc2ccccc12)NC(C(=O)O)(c1ccccc1)c1ccccc1	-32%[inhibitor]	-8%	-2	nt	-0.8	-8%	8
COc1ccccc1CNS(=O)(=O)c1ccc2c(c1)CCCN2C(C)=O	?	6%	2	nt	-2.8	12%	-5
COc1cccc(N(CC(=O)N2CCCC2)S(C)(=O)=O)c1	-1%	6%	nt	1.3%	-3.9	22%	17
CCN(CC)c1ccc(C2N(C(=O)N3CCOCC3)CCN2S(=O)(=O)c2ccc(C)cc2)cc1 (stereo not given)	40%	-11%	-15	-4.2%	4.8	4%	-7
CC(C)Oc1ccc(C2c3c(oc4ccccc4c3=O)C(=O)N2CCCN2CCOCC2)cc1 (stereo not given)	-16%	10%	-1	-3.8%	4.6	-2%	19
COc1ccccc1C(=O)CSc1n[nH]c(N)n1	-3%	-4%	-2	0.0%	0.5	89µM*	0
CCCOc1ccccc1OCC(=O)Nc1cccc(S(=O)(=O)NC2=NCCC2)c1	3%	-4%	-28	-4.3%	nt	nt	-3
CCOc1ccc(C2CC(c3cccc(Cl)c3)n3nc(N)nc3N2)cc1 (stereo not given)	-24%	-12%	1	0.2%	2.8	2%	?
O=C(O)/C(=C\c1cccc(C(F)(F)F)c1)c1ccc(S(=O)(=O)N2CCCC2)s1	-44%[inhibitor]	2%	12	-1.0%	nt	nt	7
Cc1ccc(-c2nc3ncccc3o2)cc1NC(=O)C(C)C	6%	-10%	1	nt	4.4	11%	-7
CCOC(=O)C1=C(CSc2nnnn2C)N(C)C(=O)NC1c1ccccc1 (stereo not given)	3%	-2%	10	0.7%	0.9	10%	-10
CN(C)C(CNC(=O)c1cc2ccccc2oc1=O)c1ccccc1 (stereo not given)	-12%[15.4 µM]	8%	1	nt	0.2	13%	-24
C=CCSc1nnc(NC(=O)CSc2nnc(C)s2)s1	?	-2%	12	1.0%	-1.6	7%	2
COc1cc(/C=C2/CCCC(C(=O)C(F)(F)F)=C2O)ccc1O	-7%[15.4 µM]	-4%	1	nt	23	-29%	-17

With a hit mark in Sfp inh, of those listed so far:
canonical_smiles	gsp agonist	gsp antag	CtBP-E1A blk	Menin MLL FP FL	Sfp inh
CCN1CCN(CCNC(=O)c2ccc(/C=C3\Sc4ccccc4N(Cc4ccccc4F)C3=O)cc2)CC1	-17%	-5%	-10	-0.8	79µM*
O=S(=O)(/N=C(/NC(=S)Nc1ccccc1)c1ccccc1)c1ccc(Cl)cc1	?	-10%	-5	1.6	45µM*
COc1ccccc1C(=O)CSc1n[nH]c(N)n1	-3%	-4%	-2	0.5	89µM*
